# Vif TR-FRET – inhibitors of Vif binding to APOBEC3G peptide, primary screen, biochemical, TR-FRET, GST-Vif 1-94, biotin-A3G peptide, dose response retest (AID 1117319). inhibition, %; hits with a dose series show IC50 in µM. 260,000 compounds, 0.57% hits. TR-FRET GST-Vif / biotin-A3G peptide binding; higher % means a stronger effect; test concentration not given here; strong numbers were not always called active;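 active means above the screen mean plus three standard deviations and confirmed in dose response; inconclusive means results disagree or hit not tested in dose response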;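 further: Vif residues 1-94 fused to GST binding biotinylated APOBEC3G peptide 110-148; 0% = full assay without inhibitor and 100% = GST in place of GST-Vif; retest series ran down from 100 µM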
# ALR inh – blocks human ALR sulfhydryl oxidase activity. purified ALR, DTT oxidation, H2O2 HRP-luminol luminescence. AID 485317. inhibition, % (no concentration beside the values). P55789. 290,000 compounds, 3.8% hits;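 active means mean and each replicate at 75% or more; inconclusive means only one of the two met; inactive means neither met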;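 further: stock transfer was 7.5 nL into about 7.5 µL; 0% = neutral wells and 100% = wells with inactivated enzyme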
# Target sequence (P55789 whole entry, looked up): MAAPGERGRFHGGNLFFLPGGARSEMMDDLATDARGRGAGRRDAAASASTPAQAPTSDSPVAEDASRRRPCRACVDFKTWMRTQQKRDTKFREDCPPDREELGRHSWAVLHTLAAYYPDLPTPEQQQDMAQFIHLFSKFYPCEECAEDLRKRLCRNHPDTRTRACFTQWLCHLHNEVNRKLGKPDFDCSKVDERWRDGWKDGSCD
# HNF4A DNA FP – change in binding of human HNF4 alpha to DNA; activity change, % at 10 µM; 360,000 compounds, 0.3% hits; HNF4a-FITC DNA binding, fluorescence polarization, 1 h; in the data active means activity change above about 30%, passing the limit was not always enough;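 further: controls were the assay level and a saturating level of protein; the project sought stronger binding though the title names inhibitors; some compounds called inactive have numbers as strong as hits; positive values seem to mean higher polarization but the record does not say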
# AF4-AF9 inh – inhibitors of human MLL-AF4/AF9 interaction; P42568; AlphaScreen, biotin-AF4 peptide binding to FLAG-AF9; inhibition, % at 10 µM; 350,000 compounds, 0.47% hits;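 active means every replicate reaching a set inhibition limit, whatever the replicate mean, cut at about 25% in these data; inconclusive means mean inhibition reaches that limit but some replicates miss it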;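 further: 0% = plate neutral control median and 100% = total signal loss; the record names both 10 and 1 µM as test concentration; the first replicate is given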
# Target sequence (P42568 whole entry, looked up): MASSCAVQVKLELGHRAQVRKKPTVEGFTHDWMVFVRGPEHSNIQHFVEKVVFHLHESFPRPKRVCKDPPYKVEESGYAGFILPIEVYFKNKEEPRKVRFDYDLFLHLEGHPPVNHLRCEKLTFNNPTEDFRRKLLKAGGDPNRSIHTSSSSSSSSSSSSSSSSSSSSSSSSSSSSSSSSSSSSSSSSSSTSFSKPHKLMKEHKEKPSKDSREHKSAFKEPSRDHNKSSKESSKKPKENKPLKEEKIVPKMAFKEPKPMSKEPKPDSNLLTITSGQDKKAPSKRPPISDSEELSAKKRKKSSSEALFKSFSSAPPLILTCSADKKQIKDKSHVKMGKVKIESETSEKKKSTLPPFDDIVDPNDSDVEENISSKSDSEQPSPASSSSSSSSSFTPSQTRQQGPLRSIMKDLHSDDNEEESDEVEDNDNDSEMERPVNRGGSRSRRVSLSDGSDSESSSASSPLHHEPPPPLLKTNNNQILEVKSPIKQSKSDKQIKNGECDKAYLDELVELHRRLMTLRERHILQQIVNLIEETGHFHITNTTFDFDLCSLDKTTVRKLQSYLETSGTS
# rRNA inh HTS – inhibits bacterial ribosomal RNA function over humanized ribosomes | E. coli WT GFP vs humanized-ribosome RFP mutants, fluorescence, 24 h; hits give low values; DMSO median 0, no signal -100 | 350,000 compounds, 1.6% hits | GFP signal change (wild-type ribosome), % (concentration not given with the values);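 active means significant combined selectivity score with lowered wild-type GFP, culture density cut under 30%, mutant RFP and density less affected; inactive means any of these conditions unmet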; further: one replicate is shown; some compounds called inactive have numbers as strong as hits
# FGF22 binding – shifts melting point of recombinant human FGF22 | calls only at 9.99 µM | AID 651658 | recombinant FGF22 thermal shift, SYPRO orange fluorescence; percent of sucrose octasulfate shift, DMSO zero | 340,000 compounds, 1.5% hits;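 active means melting point raised past a set limit in the mean and every replicate; inconclusive means no clear call; three in four hits are not shown here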
# Target sequence (Q9HCT0 whole entry, looked up): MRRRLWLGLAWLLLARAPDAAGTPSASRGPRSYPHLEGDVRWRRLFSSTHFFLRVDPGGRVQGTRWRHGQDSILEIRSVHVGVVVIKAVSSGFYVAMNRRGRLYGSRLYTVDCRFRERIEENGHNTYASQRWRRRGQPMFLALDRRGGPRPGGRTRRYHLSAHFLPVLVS
# Ecoli growth – blocks Escherichia coli growth; OD600, 23 h; hits give low values; OD600 absorbance (test concentration not listed); 330,000 compounds, 0.21% hits;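 active means OD600 absorbance below the run mean of sample wells minus 3.6 SD, in any replicate, cut at about 0.56 in these data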;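 further: stock transfer was 300 nL into about 60 µL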
# rRNA inh HTS OD600 – further read-out of rRNA inh HTS, marked with its call; OD600 change, %; measured here: OD600 growth;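 optical density of the mix in the first replicate; 0 = DMSO median and -100 = no signal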
# rRNA inh HTS RFP – also measured in rRNA inh HTS; calls as there; RFP signal change, %; measured here: RFP humanized mutant strains;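 first replicate; 0 = DMSO median and -100 = no signal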
# * hit, by the source's call; i = inactive; ? = inconclusive; . = not tested or not shown; & = joins results of further samples.
# Under each structure – ALR inh	AF4-AF9 inh	Ecoli growth	rRNA inh HTS OD600	rRNA inh HTS	Vif TR-FRET	HNF4A DNA FP	FGF22 binding	rRNA inh HTS RFP
1	COc1ccc(NC(=O)C2CCCN(c3ncccn3)C2)cc1 (centres undefined)
    -6.1	-1.2	0.692	13.1	7.7	.	1.9	i	-1.5
2	Cc1ccc(S(=O)c2ccc(C)cc2)cc1
    1.1	.	0.68	.	.	-2.2%	3.8	.	.
3	CCCN(CC(=O)Nc1ccccc1C)C(=O)c1ccc2ccccc2n1
    -11.1	6.7	0.71	2.4	0.8	0.4%	-0.1	i	3.3
4	Cc1ccc(S(=O)(=O)Cn2nnnc2C(C(C)C)N2CCN(Cc3ccco3)CC2)cc1 (centres undefined)
    2.5	.	0.691	.	.	-0.4%	0.7	.	.
5	Cc1nccn1C(c1ccccc1)c1ccccc1
    -0.6	.	0.592	-0.2	-6.1	.	-1.3	i	-0.7
6	Cc1cc(Cl)ccc1N(CC(=O)N(C)Cc1ccccc1)S(C)(=O)=O
    .	1.6	.	-16.2	-12.7	3.5%	3.3	i	5.9
7	NC(=O)c1cc(NC(=O)CCNS(=O)(=O)c2cccc(C(F)(F)F)c2)cc(C(N)=O)c1
    -3.4	1.1	0.659	9.8	12.7	21.3%	-1.9	i	0.8
8	COc1ccc(S(=O)(=O)N2CCSC2)cc1C
    -2.7	1.3	0.704	-1.8	11.2	14.3%	5.7	i	-2.3
9	O=C(Nc1ccccc1)c1ccc(=O)n(Cc2ccc(F)c(F)c2)c1
    -1.6	-0.2	0.666	0.3	-11.6	0.9%	-0.7	i	2.7
10	COc1cc(OC)cc(C(=O)Nc2ccc(-n3cnnn3)c(C)c2)c1
    -0.5	-2.9	0.684	-6.2	-14.8	1.7%	-1.2	i	1.2
11	Cc1c(/C=N/NC(=O)c2cccs2)c2ccccc2n1Cc1ccccc1Cl
    .	-0.8	.	1.9	5.2	-0.8%	-3.4	.	-5.6
12	COc1ccc(CN(C)C[C@@H]2Oc3ccc(NC(=O)Nc4ccccc4)cc3CC(=O)N([C@H](C)CO)C[C@@H]2C)cc1
    .	2.9	.	-14.4	1.8	.	.	i	18.0
13	COc1ccc(Cn2ccnc2SCC(=O)NC2CCCCC2)cc1
    -6.3	-0.6	0.637	0.2	-0.1	.	5.7	i	3.3
14	CC(C)(C)CC(C)(C)c1ccc(O)c(Cc2ccc(Cl)cc2Cl)c1
    .	4.8	.	-4.4	4.2	.	0.7	i	-5.0
15	Cc1ccc(S(=O)(=O)CCC(=O)OCC(=O)N(C)C2CCS(=O)(=O)C2)cc1 (centres undefined)
    .	-3.7	0.609	13.3	9.4	-0.9%	2.2	i	-0.6
16	C=CCn1c(=O)c2c(C)c(C)sc2n2c(Nc3ccccc3)nnc12
    -3.7	.	0.689	.	.	25.9%	0.1	.	.
17	CCCOCCOC(=O)c1[nH]c2c(c1C)C(=O)CC(c1cc(OC)ccc1OC)C2 (centres undefined)
    0.5	-2.4	0.8	10.4	0.5	-5.8%&-8.4%	-2.5	i	-1.2
18	C[C@H](CO)N1C[C@H](C)[C@@H](CN(C)S(=O)(=O)c2ccc(Cl)cc2)Oc2c(NC(=O)C3CC3)cccc2C1=O
    .	-2.6	.	-1.1	-0.5	.	.	i	1.2
19	CNC(=O)C[C@H]1CC[C@@H]2[C@H](COc3ccc(NC(=O)Nc4cc(C)cc(C)c4)cc3C(=O)N2C)O1
    .	2.4	.	-4.8	4.0	.	.	i	-0.7
20	CCOc1ccc(-c2nnn(CC(=O)NCc3ccc(C)cc3)n2)cc1
    -5.2	0.2	0.688	8.1	1.1	1.0%	2.0	i	-2.7
21	O=c1ccc2cc(S(=O)(=O)N3CCOCC3)ccc2o1
    -0.2	.	0.716	.	.	-8.2%	-0.9	.	.
22	COc1ccccc1CNc1ccc(Br)cn1
    .	0.8	0.648	-19.4*	-29.5*	2.3%	0.9	i	-1.7*
23	O=C(CSc1nc2ncc(Cl)cc2[nH]1)N(Cc1ccccc1)C1CCS(=O)(=O)C1 (centres undefined)
    -4.0	-0.5	0.691	1.8	-11.3	.	0.1	i	1.1
24	CCOCCCNC(=O)c1cc(Cl)c(NC(=O)C2=C(C)OCCS2)cc1OC
    -4.0	1.5	0.667	-14.7	-12.9	0.8%	-1.9	i	-1.5
25	Cc1ccccc1NS(=O)(=O)c1ccc(C(=O)NCC2CCCO2)cc1 (centres undefined)
    .	?	0.686	13.2	10.6	2.1%	-0.3	i	1.9
26	COC(=O)CC(CC(=O)OC)n1cccc1
    .	-2.6	.	8.1	4.9	-3.2%	-18.0	i	-8.1
27	NC(Cc1ccc(Cl)cc1)c1csc(Nc2cc(Oc3ccccc3)ncn2)n1 (centres undefined)
    .	7.5	.	.	.	.	2.2	i	.
28	O=C(C[C@@H]1CC[C@H]2NC[C@@H](O)COC[C@@H]2O1)NCCN1CCCCC1
    .	-2.5	.	-3.4	2.6	.	.	i	-3.3
29	CCCNC(=O)N1CC2(C1)[C@H](c1ccccc1)[C@@H](CO)N2C(=O)CC1CC1
    .	-1.9	.	9.2	0.7	.	.	i	0.5
30	COc1cccc(C2CC(c3ccc(Cl)cc3)Nc3nc(N)nn32)c1 (centres undefined)
    .	-0.3	0.759	-6.0	4.1	-1.0%	1.2	i	-2.0
31	CC(=O)NC1C(Oc2ccc3c(C)cc(=O)oc3c2)OC(COC(C)=O)C(OC(C)=O)C1OC(C)=O (centres undefined)
    -6.3	-1.8	0.718	6.3	10.3	11.2%	-0.3	i	2.9
32	CC(=O)N(C)C[C@@H]1Oc2cc(/C=C/c3ccccc3)ccc2S(=O)(=O)N([C@@H](C)CO)C[C@H]1C
    .	7.4	.	-17.8	-5.9	.	.	i	-0.1
33	CCCCn1c(N)c(N(CCOC)C(=O)CCCc2nc3ccccc3s2)c(=O)[nH]c1=O
    .	-42.0	0.611	19.9	7.3	-3.4%	-1.2	i	-0.4
34	Cc1ccc(NC(=O)COC(=O)c2cccnc2Cl)cc1S(=O)(=O)N1CCCCC1
    .	2.3	0.7	-18.8	-20.6	-6.5%	1.5	i	2.8
35	O=C(COC(=O)c1ccc(S(=O)(=O)N2CCCC2)cc1)NCc1ccco1
    -5.6	3.8	0.662	9.4	0.1	11.1%	-1.9	i	-0.7
36	O=C(NNC(=S)Nc1ccc(F)cc1)C1CC1c1ccc(Cl)cc1 (centres undefined)
    57.6	4.3	0.715	-30.4*	-52.2*	-8.8%	0.4	i	-19.0*
37	O=C(COc1ccc(Br)cc1Cl)N1CCN(c2ccccn2)CC1
    -23.8	-3.2	0.686	-22.9	-17.4	.	5.3	i	-6.3
38	O=C(CSc1n[nH]c(-c2cccnc2)n1)Nc1ccc(Br)cc1
    .	-4.7	0.621	-18.8	-10.9	.	-0.9	i	0.9
39	Cc1noc(C)c1NC(=O)Nc1cccc2c1O[C@@H](CN(C)C(=O)Nc1ccc3c(c1)OCO3)[C@H](C)CN([C@@H](C)CO)C2=O
    .	0.3	.	6.6	1.7	.	.	i	-1.9
40	O=C(CSc1nc2ccc(Cl)cc2[nH]1)NC1CCCC1
    -3.7	-0.7	0.702	-7.5	-15.7	.	-1.9	i	10.4
41	Cc1cc(C)c(C#N)c(SCCN2CCCCC2)n1
    -9.9	-2.4	0.663	13.7	14.9	-3.6%	-0.5	i	29.9
42	O=C(CCCN1C(=O)CCC1=O)Nc1cccc(C(F)(F)F)c1
    -5.5	.	0.772	.	.	?	-0.1	.	.
43	COc1cccc(CNC(=O)Cn2ncn3cccc3c2=O)c1OC
    30.2	5.0	0.684	5.0	6.7	.	1.7	i	1.7
44	Cc1ccc(C(C(=O)NC2CCCCC2)N2CCC3(CC2)OCCO3)cc1 (centres undefined)
    -5.3	.	0.712	.	.	-2.9%	3.5	.	.
45	O=[N+]([O-])c1ccc(-c2c(-c3ccccc3)ncc3ccc(F)cc23)cc1
    21.8	.	0.708	-1.3	3.5	.	1.6	i	15.0
46	Cn1cc(/C=N/n2cnc3sc4c(c3c2=O)CCCC4)c2ccccc21
    -5.8	.	.	.	.	-5.1%	-0.5	.	.
47	C[C@@H]1COC(=O)[C@H](CC(=O)OC(C)(C)C)C/C=C\C[C@@H](CC(=O)NCCO)C(=O)N1
    -2.2	1.6	.	2.9	2.6	.	0.2	i	11.4
48	O=C(NC(Cc1c[nH]c2ccccc12)C(=O)OCC(=O)c1cccc2ccccc12)c1cccs1 (centres undefined)
    -6.9	.	0.717	.	.	.	7.2	.	.
49	CC(C)=CCC/C(C)=C/CNC(=O)C[C@H]1C[C@H](C(=O)N2CCCCC2)[C@@]2(C)c3[nH]c4ccc(Cl)cc4c3CCN2C1=O
    .	-0.7	0.735	12.3	13.2	.	-3.4	i	1.3
50	CCc1c(Nc2ccccc2C)nc(N)[nH]c1=O
    .	-4.9	0.675	9.2	10.0	-7.7%	3.1	i	3.2
51	CCC(C)(C)n1nnnc1C(c1ccc2ncccc2c1)N1CCN(Cc2ccc3c(c2)OCO3)CC1 (centres undefined)
    -6.3	.	0.681	.	.	-5.2%&0.8%	-2.4	.	.
52	CN1c2ccc(Br)cc2[C@@H]2[C@@H](CCN2C(=O)C2CC2)[C@H]1CO
    .	-5.8	.	16.5	2.7	.	.	i	-4.3
53	Cc1ccc(N(CC(=O)NCc2cccnc2)S(C)(=O)=O)cc1C
    .	.	0.687	.	.	-4.5%	1.7	.	.
54	COc1cccc(C2NC(=O)NC(C)=C2C(=O)OCC2CCCCC2)c1 (centres undefined)
    -5.7	4.0	0.646	11.9	10.7	.	0.8	i	-0.2
55	O=C(CN(Cc1ccccc1)S(=O)(=O)c1ccccc1)N1CCOCC1
    -9.1	.	0.689	.	.	-2.1%	-0.7	.	.
56	O=C(c1cccc(Oc2ccc([N+](=O)[O-])cc2Cl)c1)N1CCOCC1
    0.8	-0.9	0.733	-0.3	-7.4	.	5.3	i	-2.3
57	C=Cc1ccc(Cn2c(C)c(C(=O)NCc3cccc([N+](=O)[O-])c3)sc2=O)cc1
    .	1.9	.	-3.9	-9.1	.	-0.4	i	-0.3
58	O=C1C(=Cc2cccs2)CCc2ccccc21
    .	7.8	.	-46.6	-28.0	.	.	i	-10.0
59	CC1=CN2C(=N)/C(=C/c3ccc([N+](=O)[O-])o3)C(=O)N=C2S1
    36.6	4.3	0.588	4.6	5.9	2.91µM*	66.3*	i	36.5
60	C[C@H]1CN([C@@H](C)CO)C(=O)CCCn2nncc2CO[C@H]1CN(C)Cc1cccnc1
    .	-0.7	.	0.4	1.6	.	.	i	0.8

# The list continues:
# Under each structure – ALR inh	AF4-AF9 inh	Ecoli growth	rRNA inh HTS OD600	rRNA inh HTS	Vif TR-FRET	HNF4A DNA FP	FGF22 binding	rRNA inh HTS RFP
61	Nc1nc(CSC(=S)N2CCN(c3ccccc3)CC2)nc(Nc2ccc(F)cc2)n1
    0.2	.	0.643	.	.	.	-1.9	.	.
62	Cc1ccccc1Cn1ccc(NC(=O)c2nc3ncccn3n2)n1
    -4.3	.	0.722	.	.	24.3%	-1.7	.	.
63	COc1cccc(OC)c1-c1nn(-c2ncc(C(F)(F)F)cc2Cl)c(=O)o1
    0.6	-3.3	0.642	15.9	-5.5	-10.7%	-0.1	i	-2.6
64	O=C(Nc1ccc(Cl)c(S(=O)(=O)N2CCOCC2)c1)c1cc(=O)[nH]c2ccccc12
    -4.1	3.1	0.654	16.8	-0.3	-3.0%	-0.6	i	-1.9
65	Cc1ccc(OCC(=O)Nc2ccc3c(c2)nc(CCN2CCCCC2)n3C)cc1
    -3.4	0.1	0.698	4.4	4.0	.	2.5	i	-0.8
66	CC(C)(C)C(=O)Nc1ccccc1C(=O)NCc1cccnc1
    -5.4	-3.1	0.662	6.9	-2.5	-10.5%	-0.7	i	-2.5

# Bioassay records (PubChem)

# Not all compounds are listed; rates above refer to the full screens.
